NS1 function inh: influenza NS1 inhibition. S. cerevisiae slowed by influenza A NS1, growth recovery by OD600. 0.4% of 270,000 active. Potency, µM (top dose mostly 46.1 µM), for inactives: at the top dose activity, positive = more growth. AID 2326; active means well fitted rising curve with a large enough effect; inconclusive means small, poorly fitted or top-dose-only effect; inactive means no such curve, though single readings can be large or run the other way; further: nearly all actives have a fitted effect of over 50% in size
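In this qHTS, NS1 from influenza A is expressed in budding yeast, where it slows growth. Cells are switched from glucose to 2% galactose medium (pH 6.0, -URA), treated with compound, and growth recovery is read at OD600.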
RE007 growth inh: less growth of the S. pombe RE007 Vpr strain; 0.21% of 360,000 active; AID 651644; S. pombe RE007 Vpr strain, BacTiter-Glo ATP luminescence, 24 h; control for the full effect not named in the record; Potency, µM (highest dose often 92.2 µM), without a hit: at the highest dose activity change, negative = less growth; active = well fitted falling curve with a large enough effect; inconclusive = small, poorly fitted or top-dose-only effect; inactive = no such curve, though single readings can be large or run the other way;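 further: on the % scale 0 is the no-effect control and ±100 the full control effect; nearly all actives have a fitted effect of over 50% in size; the assay follows cell death caused by Vpr and the record does not say whether a fall means rescue or toxicity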
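Fission yeast RE007 carrying one integrated HIV-1 vpr copy, seeded at OD 0.01 in PMG+AL medium with 23 nL pinned compound. Grown 24 h at 30 degrees; viability read by BacTiter-Glo luminescence after 5 min.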
Cruzain Triton: blocks cruzain activity in presence of Triton detergent. AID 1478. purified cruzain, Z-FR-AMC fluorescence, 0.01% Triton. Potency, µM, for inactives: max response, negative = inhibition, most hits filed as inhibitors. P25779. 0.43% of 200,000 active;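 further: plate controls were neutral wells for no effect and buffer without enzyme for full effect; nearly all actives have a fitted effect of over 40% in size; top concentration of the series not given in the record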
Target sequence (P25779 123-467 limits assumed): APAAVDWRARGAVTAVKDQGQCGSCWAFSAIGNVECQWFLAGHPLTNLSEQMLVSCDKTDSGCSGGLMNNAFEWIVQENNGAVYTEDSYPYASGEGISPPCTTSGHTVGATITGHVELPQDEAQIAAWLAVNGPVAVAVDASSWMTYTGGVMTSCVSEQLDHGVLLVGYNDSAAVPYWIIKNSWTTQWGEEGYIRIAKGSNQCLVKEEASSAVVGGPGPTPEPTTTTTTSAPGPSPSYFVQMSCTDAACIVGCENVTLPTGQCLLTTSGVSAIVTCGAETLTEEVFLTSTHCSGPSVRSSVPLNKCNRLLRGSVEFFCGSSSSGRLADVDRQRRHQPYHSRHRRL
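Read-out: AMC fluorescence (360 nm excitation, 450 nm emission), four reads over 2 min, first-to-third difference used. Conditions: cruzain 1.5 nM, Z-FR-AMC 2 uM, pH 5.5 acetate, 5 mM DTT, 0.01% Triton X-100.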
2A StopGo: FMDV 2A StopGo reporter, luciferase signal; Potency, µM (top dose mostly 57.9 µM), for the others: at the top dose signal change, negative = less light; AID 1159524; 1.2% of 410,000 active; human cells with a luciferase reporter of 2A StopGo recoding; control for the full effect not named in the record; active = well fitted falling curve with a large enough effect; inconclusive = small, poorly fitted or top-dose-only effect; inactive = no such curve, though single readings can be large or run the other way; tested in HEK293T cells; further: on the % scale 0 is the no-effect control and ±100 the full control effect; nearly all actives have a fitted effect of over 45% in size; luciferase light after 4 h
Lassa entry inh: inhibitors of Lassa virus binding or cell entry; Lassa virus pseudotype entry inhibition, cell reporter; control for the full effect not named in the record; Potency, µM (highest dose often 37.9 µM), for the others: top-dose activity change, negative = inhibition, actives largely listed as inhibitors; 1.2% of 300,000 active; AID 540256; active means well fitted inhibition curve with a large enough effect; inconclusive means small, poorly fitted or top-dose-only effect, or effect the other way; inactive means flat fitted curve, though single readings scatter; tested in HEK293 cells; further: on the % scale 0 is the no-effect control and ±100 the full control effect; nearly all actives have a fitted effect of over 50% in size; luciferase read-out
SARS PLP yeast: blocks SARS-CoV papain-like protease in a yeast assay. S. cerevisiae expressing SARS-CoV PLpro, growth rescue; control for the full effect not named in the record. Potency, µM (series often up to 32.9 µM), inactives show top-dose activity, positive = growth rescue. 0.19% of 330,000 active; active means well fitted rising curve with a large enough effect; inconclusive means small, poorly fitted or top-dose-only effect; inactive means no such curve, though single readings can be large or run the other way; further: 0% is about no effect; nearly all actives have a fitted effect of over 55% in size; growth read by luminescence after 48 h
Cruzain inh noDet: inhibitors of Trypanosoma cruzi cruzain without detergent; purified cruzain, Z-FR-AMC fluorescence, no detergent; P25779; AID 1476; 2.3% of 200,000 active; Potency, µM, inactives show max response, negative = inhibition, actives largely listed as inhibitors;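 further: plate controls were enzyme without inhibitor for no effect and buffer without enzyme for full effect; nearly all actives have a fitted effect of over 40% in size; top concentration of the series not given in the record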
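Purified cruzain at 1.5 nM, pre-incubated 15 min with compound at room temperature in 100 mM sodium acetate pH 5.5, 5 mM DTT, 0.00005% Triton X-100. Reaction started with 2 uM Z-FR-AMC; AMC fluorescence increase over 60 s gives rate.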
MARV entry inh: inhibitors of Marburg virus binding or cell entry; Marburg virus pseudotyped entry inhibition, cell reporter; control for the full effect not named in the record; about a third of the inactives were read at about 46 µM; Potency, µM (highest dose often 37.8 µM), for inactives: at the highest dose activity change, negative = inhibition, usual class: inhibitors; 1.8% of 300,000 active; active = well fitted inhibition curve with a large enough effect; inconclusive = small, poorly fitted or top-dose-only effect, or effect the other way; inactive = flat fitted curve, though single readings scatter; tested in HEK293 cells; about a fifth of its hits are not listed in these tables; further: on the % scale 0 is the no-effect control and ±100 the full control effect; luciferase read-out
* marks the source's active call; other numbers are inactive results; ? = inconclusive; . = no result given; & = joins results of further samples; [ ] = dose if it differs, or a comment. Unless noted, the call rests on the fitted dose curve; in most records, active means well fitted curve in the direction sought with a large enough effect; inconclusive means small, poorly fitted or top-dose-only effect, or another doubt; inactive means no such curve, though single readings can be large; an effect the other way counts as inactive or inconclusive. Potency means the concentration at half of the fitted maximal effect.

SMILES | NS1 function inh | RE007 growth inh | Cruzain Triton | 2A StopGo | Lassa entry inh | SARS PLP yeast | Cruzain inh noDet | MARV entry inh
COc1ccc(NC(=O)C2CCN(C3=NS(=O)(=O)C(c4ccc(C)c(C)c4)=C3C)CC2)c(OC)c1 | . | . | -1.7% | -10% | -20%[46.1 µM] | . | -7% | .
C=CCOc1c(Cl)cc(C2NC(=O)NC(C)=C2C(=O)OC)cc1Cl (configuration not stated) | 3% | 8% | -0.4% | . | -26% | 0% | -12% | -9%
C[C@H]1CN=C(Nc2ccccc2)N1CCCC1CCCCC1 | 3% | 1% | . | -12% | . | -4% | . | .
O=C(NNc1cccc(Cl)n1)c1ccc(Cl)nc1 | -24% | -2% | 0.8% | 15% | -4% | 16% | 9% | 5%
CCCCN(CCCC)/C(N)=N/c1nc(C)cc(C)n1 | -1% | -19% | . | -19% | -18% | -1% | . | ?
O=C(c1ccc(CS(=O)Cc2ccccc2Cl)o1)N1CCN(C2CCCCC2)CC1 (configuration not stated) | 4% | 6% | . | -8% | . | -5% | . | .
COc1ccccc1CSc1nc2n(n1)C(c1ccccc1)C(C(=O)Nc1ccc(C)cc1)=C(C)N2 (configuration not stated) | . | . | -2.4% | 3% | -9%[46.1 µM] | . | ? | -7%[46.1 µM]
COc1ccc(Oc2nnnn2-c2ccccc2)cc1 | -6% | -8% | -0.9% | 21% | ? | 12% | 6% | 27%
Nc1nc[nH]c(=O)c1N=Cc1ccccc1 | 1% | 8% | . | -9% | 0%[46.1 µM] | -1% | . | 0%[46.1 µM]
Cc1ccc(Cn2nc(C)c(NC(=O)c3cc(-c4ccc5c(c4)OCO5)on3)c2C)cc1 | -36% | 11% | -2.1% | -24% | 0% | -3% | 14% | ?
COc1cccc(NC(=O)c2ccccc2-c2nc(-c3ccccc3)no2)c1 | -1% | 4% | -2.9% | -24% | -12% | -6% | 0% | 16%
CCCCC(O)(CCCC)C(=O)NN(C(=O)OC)c1ccccc1 | -3% | 4% | -0.1% | -19% | -8% | 0% | -4% | ?
Cc1nc(Nc2ccccc2Cl)sc1C(=O)Nc1ccccc1 | -27% | 10% | -12% | 17% | 8% | -2% | -5% | -14%
O=C(c1ccccc1NS(=O)(=O)c1ccc(Cl)cc1)N1CCc2ccccc21 | -5% | -9% | -8.4% | 0% | 11% | -18% | 0% | -29%
Cc1ccc(S(=O)(=O)N2CCSCCSCCSCCSCC2)cc1 | . | -2% | . | -14% | -13% | . | . | ?
O=C(CS(=O)(=O)c1ccccc1)Nc1ccc(S(=O)(=O)Nc2ccccn2)cc1 | 4% | 4% | . | 46%[activator] | 7% | 0% | . | -4%
Cc1nc([N+](=O)[O-])c(Br)n1CC(=O)c1ccc(Cl)cc1 | -83% | -1% | 1.6% | -32% | ? | -24% | -8% | ?
C=CCSC1=NC(N)=C(C#N)C2(CCCCC2)C1C(N)=O (configuration not stated) | -4% | -2% | -3.1% | -10% | -15% | -5% | 3% | ?
CCN1CCN(c2nc3c(C)cccn3c(=O)c2/C=C(\C#N)S(=O)(=O)c2ccc(C)cc2)CC1 | -2% | 12% | 1.3% | 21% | 9% | -1% | 1% | 9%[46.1 µM]
O=S(=O)(NC1CCCC1)c1cccc(S(=O)(=O)N2CCC(n3nnc4ccccc43)CC2)c1 | 2% | 7% | 3.8% | -21% | -6% | 1% | ? | 1%&1%
CC1CC(C)(C)NC(=O)O1 (configuration not stated) | -10% | -2% | 3.7% | -8% | -1% | -1% | 0% | 0%
O=C(CCCC(=O)N1CCCC1)N1CCCC1 | 1% | -7% | . | 20% | 13% | -2% | . | ?
CCN1CCN(C(c2cccc(OC)c2)c2sc3nc(C)nn3c2O)CC1 (configuration not stated) | 0% | -3% | -3.3% | ? | 4% | -2% | 0% | ?
CC(C)Oc1ccc(C2CC(=O)N(Nc3ccc([N+](=O)[O-])cc3[N+](=O)[O-])C2=O)cc1 (configuration not stated) | 2% | -17% | . | -20% | . | 0% | . | .
O=C(COc1ccc(/C=N/NS(=O)(=O)c2ccccc2)cc1)Nc1ccc(F)cc1 | -8% | 20% | -6.3% | 68%[activator] | 10% | -3% | -10% | -2%
Cn1c(-c2ccccc2)cc2c3no[n+]([O-])c3ccc21 | -121% | -11% | -0.5% | 5% | 4.5µM* | -21% | 1% | 3.5µM*
Cc1cccc(CCNC(=O)C2CCC(CNS(=O)(=O)c3cccs3)CC2)c1 (configuration not stated) | . | 16% | . | 0% | -19% | -1% | . | 13%[46.1 µM]
CC(C)c1ccc(NC(=O)COc2ccc(F)cc2C(=O)c2cnn(-c3ccccc3)c2)cc1 | ? | -9% | -5.8% | 4% | ? | 3% | -19% | ?
CCOc1ccc(-c2nc(N)ncc2-c2ccccc2)c(O)c1 | -40% | -2% | -9.5% | ? | -13% | -7% | -6% | ?
CCN(CC)S(=O)(=O)c1ccc2c(c1)nc(SCC(=O)N1CCOCC1)n2-c1ccccc1OC | 17% | 1% | -2.0% | 5% | -26% | -2% | ? | ?

One compound at a time (already shown):
C[C@H]1CN=C(Nc2ccccc2)N1CCCC1CCCCC1 reads NS1 function inh = 3%; RE007 growth inh = 1%; Cruzain Triton = .; 2A StopGo = -12%; Lassa entry inh = .; SARS PLP yeast = -4%; Cruzain inh noDet = .; MARV entry inh = .
CC(C)Oc1ccc(C2CC(=O)N(Nc3ccc([N+](=O)[O-])cc3[N+](=O)[O-])C2=O)cc1 (configuration not stated) reads NS1 function inh = 2%; RE007 growth inh = -17%; Cruzain Triton = .; 2A StopGo = -20%; Lassa entry inh = .; SARS PLP yeast = 0%; Cruzain inh noDet = .; MARV entry inh = .

Other structures follow:
SMILES | NS1 function inh | RE007 growth inh | Cruzain Triton | 2A StopGo | Lassa entry inh | SARS PLP yeast | Cruzain inh noDet | MARV entry inh
Cn1c(=O)c2c(nc(N/N=C/c3cccnc3)n2Cc2ccc(F)cc2)n(C)c1=O | -1% | 5% | . | -18% | ? | 1% | . | 0%[46.1 µM]
N#Cc1ccc(CSc2nnc(-c3cccnc3)o2)cc1 | -1% | -7% | . | -16% | . | 2% | . | .
CC(C)CCNC(=O)c1ccc2nc[nH]c2c1 | 2% | -8% | 0.4% | 15% | 10% | 10% | 1% | 9%
COc1ccc(C2CC(=O)c3cnc(NC(=O)c4ccco4)nc3C2)cc1 (configuration not stated) | 15% | -2% | . | -10% | -1% | 0% | . | 16%
Cc1ccc(S(=O)(=O)N2CCCCC2)cc1NC(=O)CSc1nnnn1C | -9% | 52% | . | 7% | -1%[46.1 µM] | 0% | . | 7%[46.1 µM]
CCn1c(SCC(=O)c2ccc(O)c(O)c2)nnc1-c1ccccc1 | 30% | 18% | -1.8% | 37%[activator] | 13% | 0% | -11% | -3%
COc1ccc(-c2n[nH]c(C)c2-c2ccccc2OC)c(O)c1 | -2% | 1% | . | ? | ? | -1% | . | ?
Cn1c(NC(=O)c2ccccc2)nc2ccccc21 | -89% | ? | . | 40%[activator] | . | -14% | . | .
CCN(CC)C(=O)c1sc(NC(=O)c2ccco2)c(C#N)c1C | -5% | -6% | -7.1% | . | 7% | -19% | -7% | -1%
CC(C)(C)NC(=O)C(=O)NNC(=O)c1cccc([N+](=O)[O-])c1 | . | -5% | . | 42%[activator] | 2% | 0% | . | 19%[46.1 µM]
COc1ccc(Cl)cc1NC(=O)NCCc1c(C)nn(C)c1C | . | . | -0.4% | -22% | -3%[46.1 µM] | . | -11% | .
CS(=O)(=O)c1ccc2nc(NC(=O)c3cccs3)sc2c1 | -8% | ? | -8.7% | -73% | ? | -11% | -4% | 2.2µM*
COCCNc1nc2c(-c3cccc(C(F)(F)F)c3)nnn2c2ccccc12 | 2% | 11% | . | 1% | 21% | -4% | . | ?
CCN1C(=O)C(CC(=O)Nc2c(C)cccc2C)SC1=Nc1ccc(S(N)(=O)=O)cc1 (configuration not stated) | -2% | -20% | 1.4% | 0% | -13% | -5% | -4% | -4%[46.1 µM]
O=C(COC(=O)c1ccccc1O)NC(=O)NCc1ccccc1 | . | -9% | . | -1% | ? | -5% | . | 6%
CC(C)CN1CCC(=O)N([C@H](CO)Cc2ccccc2)CC1 | 12% | -4% | . | 1% | . | 8% | . | .
CC(C)C(NS(=O)(=O)c1cccs1)C(=O)NCc1ccc2c(c1)OCO2 (configuration not stated) | ? | -1% | 1.7% | 6% | . | 15% | -6% | .
COc1ccc(S(=O)(=O)Cc2ccc(C(=O)N3CCN(C4CCCCC4)CC3)o2)cc1 | ? | -1% | 1.2% | -21% | . | 6% | -4% | 3%
COc1ccc(S(=O)(=O)N2CCN(c3ccccc3)CC2)cc1OC | . | 20% | . | 7% | 5% | . | . | ?
CCSC1=NC(C)(C)C=C(C)N1 | 1% | -5% | -1.4% | -14% | 3% | 2% | 0% | -5%[46.1 µM]
COc1ccc(Cl)cc1S(=O)(=O)N1CCCC(C(=O)NCC(N)=O)C1 (configuration not stated) | 6% | -4% | . | -23% | -11% | . | . | -6%
CCN1CCN(C(c2cccs2)C(C)NC(=S)NC2CCCCC2)CC1 (configuration not stated) | 5% | -8% | . | -1% | -5% | 0% | . | -45%[46.1 µM]
COc1cc(/C=N/NC(=O)c2cccc(N3CCCC3=O)c2)ccc1O | -1% | ? | . | 15% | ? | 17% | . | 1%
CCOP(=O)(c1ccc(N(C)C)cc1)C(O)c1c(Cl)cccc1Cl (configuration not stated) | -27% | 7% | 3.5% | 7% | 27% | -2% | 7% | -5%
COc1ccccc1C(=O)COC(=O)Cc1n[nH]c(=O)c2ccccc12 | . | -9% | . | -9% | 8% | -7% | . | 17%
COc1cc(NC(=O)c2ccco2)c(OC)cc1NC(=O)c1cc(OC)c(OC)c(OC)c1 | -3% | -6% | -12% | -20% | 1% | -6% | ? | -25%&-25%
COc1ccc(N=C2C(=O)Nc3ccc(C)c(Br)c32)cc1 | -7% | -9% | . | -6% | . | 1% | . | .
O=[N+]([O-])c1ccc2c(c1)C(O)n1nc(-c3ccccc3)nc1S2 (configuration not stated) | 4% | 1% | . | -7% | 9% | 1% | . | 10%[46.1 µM]
CCOC(=O)c1c(Nc2ccc(OCC)cc2)nnc(-c2ccccc2)c1-c1ccccc1 | . | . | -6.6% | 0% | ? | . | -13% | -25%[46.1 µM]
